Source: PubChem BioAssay (Broad Institute)
Beta cell apopt = inhibitors of cytokine-induced beta cell apoptosis, primary screen, luminescence | INS-1E cytokine-induced death, ATP luminescence, 48 h; percent of positive-control rescue, neutral wells zero | protection from apoptosis, % (test concentration not listed) | 300,000 compounds, 0.8% hits | AID 435005, 2010;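 active = all replicates at 75% or more, or half of them and the mean; inconclusive = half reach 75% but not the mean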;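 also: 0% = cytokine-treated negative control wells and 100% = positive control rescue; higher means more ATP so stronger rescue from cytokine killing; wells of about 40 µL received 100 nL stock; the first replicate is given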
RanGTP-Impb inh = inhibitors of RanGTP-importin-beta interaction, primary screen, biochemical, FRET, CFP-Ran, YFP-importin-beta, homogeneous | Ran GTPase (GTP-bound) - importin-beta complex | cell-free CFP-Ran/YFP-importin-beta FRET ratio | inhibition, % (concentration not given with the values) | 300,000 compounds, 1.1% hits | AID 2216, 2009;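 active = most replicates above 15%; inconclusive = exactly half above 15%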;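 also: 0% = DMSO wells and 100% = Ran loaded with GDP instead of GTP; wells of about 40 µL received 100 nL stock; the first replicate is given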
T cruzi repl = inhibitors of intracellular T. cruzi growth, primary screen, luminescence, NIH3T3 host cells | T. cruzi beta-gal in NIH3T3, 90 h | inhibition, % (test concentration not listed) | 300,000 compounds, 1.4% hits | AID 1885, 2009;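 active = mean inhibition across valid replicates above about 55%, limit read from the data; inconclusive = mean below that limit but half or more replicates reach it; inactive = mean below it, under half of replicates reach it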;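 also: signal also drops with host cell toxicity which is not excluded here; 0% = plate median of DMSO wells and 100% = zero luminescence signal; higher percent means less beta-gal luminescence so fewer parasites; stock transfer was 50 nL into about 50 µL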
Calb FLC = C. albicans growth inhibition with fluconazole, primary screen, CaCi-2 strain, Alamar Blue fluorescence; C. albicans CaCi-2 (fluconazole-resistant clinical isolate) + fluconazole, 48 h; growth inhibition, % (no concentration beside the values); 300,000 compounds, 0.57% hits;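 active = most replicates above 75%; inconclusive = exactly half above 75%; inactive = most below 75%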;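 also: all wells also contain fluconazole at 8 µg/ml as a sub-toxic cotreatment; 0% = median of DMSO wells and 100% = median of geldanamycin control wells; wells of about 8 µL received 7.5 nL stock; the first replicate is given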
ALR H2O2 inh = inhibitors of human ALR sulfhydryl oxidase, primary screen, biochemical, H2O2 detection, HRP-luminol luminescence, single point | FAD-linked sulfhydryl oxidase ALR (Homo sapiens), P55789 | purified ALR, DTT oxidation | inhibition, % (concentration not given with the values) | 290,000 compounds, 3.8% hits;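 active = mean and each replicate at 75% or more; inconclusive = only one of the two met; inactive = neither met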;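 also: stock transfer was 7.5 nL into about 7.5 µL; 0% = neutral wells and 100% = wells with inactivated enzyme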
Target sequence (P55789 whole entry, looked up): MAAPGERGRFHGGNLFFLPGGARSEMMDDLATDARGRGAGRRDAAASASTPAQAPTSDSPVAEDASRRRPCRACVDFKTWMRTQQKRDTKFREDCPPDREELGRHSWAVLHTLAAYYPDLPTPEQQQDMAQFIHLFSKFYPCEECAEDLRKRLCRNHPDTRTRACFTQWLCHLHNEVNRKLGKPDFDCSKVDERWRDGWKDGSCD
Ecoli rRNA inh = reduced GFP signal of wild-type E. coli, primary screen, bacterial rRNA inhibitor project, GFP/RFP fluorescence, OD600, single point | AID 720706, 2013 | GFP signal change (wild-type ribosome), % (no concentration beside the values) | 350,000 compounds, 1.6% hits | E. coli WT GFP vs humanized-ribosome RFP mutants, 24 h; active compounds read low; DMSO median 0, no signal -100;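 active = significant combined selectivity score with lowered wild-type GFP, culture density cut under 30%, mutant RFP and density less affected; inactive = any of these conditions unmet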; also: one replicate is shown; some compounds called inactive have numbers as strong as hits
FGF22 binding = binders of human FGF22 protein, primary screen, FGF22 synaptogenesis inhibitor project, biophysical, thermal shift, single point; Fibroblast growth factor 22 (Homo sapiens), Q9HCT0; recombinant FGF22 thermal shift, SYPRO orange fluorescence; percent of sucrose octasulfate shift, DMSO zero; calls only at 9.99 µM; 340,000 compounds, 1.5% hits;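 active = melting point raised past a set limit in the mean and every replicate; inconclusive = no clear call; three in four hits are not shown here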
Target sequence (Q9HCT0 whole entry, looked up): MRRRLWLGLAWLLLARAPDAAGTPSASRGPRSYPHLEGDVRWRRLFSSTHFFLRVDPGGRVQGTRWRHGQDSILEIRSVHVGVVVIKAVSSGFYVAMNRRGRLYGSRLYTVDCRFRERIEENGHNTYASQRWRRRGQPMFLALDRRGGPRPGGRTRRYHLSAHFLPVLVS
MLL AF4-AF9 inh = inhibitors of AF4 peptide binding to AF9, primary screen, biochemical, AlphaScreen, biotin-AF4 peptide, FLAG-AF9, single point | Protein AF-9 (Homo sapiens), P42568 | inhibition, % at 10 µM | 350,000 compounds, 0.47% hits | AID 651704, 2012;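 active = every replicate reaching a set inhibition limit, whatever the replicate mean, cut at about 25% in these data; inconclusive = mean inhibition reaches that limit but some replicates miss it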;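 also: 0% = plate neutral control median and 100% = total signal loss; the record names both 10 and 1 µM as test concentration; the first replicate is given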
Target sequence (P42568 whole entry, looked up): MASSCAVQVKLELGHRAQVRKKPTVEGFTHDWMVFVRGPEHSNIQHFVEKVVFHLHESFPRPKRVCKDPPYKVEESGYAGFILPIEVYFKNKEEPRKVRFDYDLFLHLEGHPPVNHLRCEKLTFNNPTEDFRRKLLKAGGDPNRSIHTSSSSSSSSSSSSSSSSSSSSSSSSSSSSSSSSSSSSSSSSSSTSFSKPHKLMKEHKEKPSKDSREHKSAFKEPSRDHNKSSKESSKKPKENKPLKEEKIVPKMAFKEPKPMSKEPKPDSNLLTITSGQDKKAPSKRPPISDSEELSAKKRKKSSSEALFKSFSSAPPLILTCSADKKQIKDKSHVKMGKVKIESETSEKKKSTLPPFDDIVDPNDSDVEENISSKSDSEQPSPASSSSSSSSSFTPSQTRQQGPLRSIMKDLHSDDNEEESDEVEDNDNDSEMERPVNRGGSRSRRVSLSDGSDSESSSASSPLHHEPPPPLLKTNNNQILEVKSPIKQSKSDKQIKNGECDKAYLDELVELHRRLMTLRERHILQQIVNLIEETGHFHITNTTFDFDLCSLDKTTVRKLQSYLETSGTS
Ecoli rRNA inh OD600 = also measured in Ecoli rRNA inh; calls as there; OD600 change, %; measured here: OD600 growth;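 optical density of the mix in the first replicate; 0 = DMSO median and -100 = no signal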
Ecoli rRNA inh RFP = further read-out of Ecoli rRNA inh, marked with its call; RFP signal change, %; measured here: RFP humanized mutant strains;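 first replicate; 0 = DMSO median and -100 = no signal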
The depositor's hits bear a star; i = inactive; ? = inconclusive; · = no result given; & = joins results of further samples. These rows are one share of the data; the hit share may differ from the screen's.

SMILES | Beta cell apopt | RanGTP-Impb inh | T cruzi repl | Calb FLC | ALR H2O2 inh | Ecoli rRNA inh | Ecoli rRNA inh OD600 | Ecoli rRNA inh RFP | FGF22 binding | MLL AF4-AF9 inh
COc1ccc(Br)cc1C1Nc2ccccc2C(=O)N1NC(=O)c1ccncc1 (stereo not drawn) | 0.9 | 5.2 | -1.6 | -3.8 | -10.3 | · | · | · | · | ·
C[C@H](CO)N1C[C@H](C)[C@@H](CN(C)C(=O)Nc2ccccc2)Oc2ccc(NC(=O)Nc3ccc(C(F)(F)F)cc3)cc2C1=O | 1.2 | · | · | · | 0.8 | 1.9&1.4 | 3.9&-6.8 | 1.6&19.8 | i | 0.9&4.2
Cc1noc(C)c1CSc1nc2ccccc2nc1NS(=O)(=O)c1ccc(Cl)cc1 | · | ? | -8.8 | 2.6 | 5.0 | · | · | · | · | ·
NC(=O)N1CCCC1C(=O)Nc1ccc(Cl)c(Cl)c1 (stereo not drawn) | -5.7 | 2.8 | -18.0 | -2.6 | 1.9 | · | · | · | · | ·
CCOC(=O)c1c(-c2ccc(-c3ccccc3)cc2)csc1NC(=O)c1cccc(N2C(=O)CCC2=O)c1 | -8.3 | 1.0 | 0.7 | 7.3 | -3.5 | · | · | · | · | ·
CCN(CC(=O)NCc1cccs1)C(=O)c1ccc(-c2ccc(F)cc2)o1 | 1.8 | · | · | · | 2.3 | -10.8 | -14.4 | 5.1 | i | 1.7
CCO[C@@H]1OC(C(=O)N2CCN(Cc3ccc4c(c3)OCO4)CC2)=C[C@H](c2cn(C(C)=O)c3ccccc23)[C@H]1CCCO | 5.1 | -1.8 | 33.2 | -13.5 | -5.9 | -29.1 | -41.4 | 23.8 | i | 9.5&7.7
c1ccc2c(NCC3CCCO3)nc(-c3ccncc3)nc2c1 (stereo not drawn) | · | -2.5 | 12.5 | -0.5 | 2.3 | · | · | · | · | ·
Cc1ccc(NC(=O)c2ccco2)c(NC(=O)c2ccccc2)c1 | -1.1 | 2.3 | -13.1 | -16.6 | 2.5 | 2.0 | 0.5 | 1.4 | i | -2.7
Cc1cccc(NC(=O)CSc2nc3ccccc3o2)c1 | 2.2 | 2.9 | -8.8 | -65.3 | -13.3 | · | · | · | · | ·
CCN1C(=O)c2ccccc2S(=O)(=O)c2ccc(C(=O)NCC(OC)OC)cc21 | -3.0 | 0.1 | -10.6 | -1.8 | · | 13.4 | 16.3 | -0.8 | i | -0.1
OCCN(Cc1ccccc1)c1ncnc2sccc12 | 0.1 | 11.1 | -7.7 | -9.5 | 3.3 | -4.0 | -2.6 | 0.2 | i | -2.1
CCSc1nnc(NC(=O)C(C(F)(F)F)C(F)(F)F)s1 | 4.2 | -1.2 | -22.9 | -1.8 | 30.6 | · | · | · | · | ·
Cc1ccc(-n2nc(C)c3c(C)c(CCC(=O)NCC4CCCO4)c(=O)n(C)c32)cc1 (stereo not drawn) | 6.0 | 2.4 | 63.4* | 4.6 | -1.2 | 0.8 | -3.6 | -5.9 | i | -4.6
COc1ccccc1NC(=O)c1cc(Sc2nncn2C)nc2ccccc12 | -1.8 | -2.4 | -6.5 | -10.1 | 1.2 | · | · | · | · | ·
O=C(CSc1nnc(-c2ccccc2O)o1)N1CCc2ccccc2C1 | -7.7 | 4.3 | 14.8 | 6.9 | 3.6 | · | · | · | · | ·
COc1ccc(OCC(O)CN2CCc3ccccc3C2)cc1 (stereo not drawn) | 2.3 | 0.2 | -6.7 | -19.3 | -1.9 | 9.3 | 5.8 | 0.5 | i | 1.6
Nc1n[nH]c(N)c1N=Nc1ccccc1 | -7.9 | -0.9 | 4.9 | -2.3 | 95.4* | 9.4 | 16.5 | -1.5 | i | 4.3
CCOC(=O)c1ccc(-c2ccc(/C=N/NC(=O)Cc3nnc(N)s3)o2)cc1 | 2.0 | 7.7 | 4.0 | 13.5 | -3.2 | -11.2 | 1.6 | 1.0 | i | -11.1
Cc1[nH]c2ccccc2c1C(=O)C(=O)NCC1CCCO1 (stereo not drawn) | -4.2 | -2.0 | -9.0 | -2.4 | -0.2 | 16.2 | 5.8 | -1.7 | i | -0.4
CCOc1ccccc1N=Nc1c(C)[nH]n(C(N)=S)c1=O | 29.0 | -3.0 | 21.7 | 2.7 | 3.1 | 17.6 | 13.4 | 3.9 | i | 0.1
O=C(CCc1ccccc1)N=C1SC2CS(=O)(=O)CC2N1c1ccccc1 (stereo not drawn) | -7.1 | 3.6 | -1.1 | -13.5 | · | 6.7 | 8.5 | -1.5 | i | 3.1
COc1ccc2c(Cl)c(C(=O)N/N=C/c3ccc4c(c3)OCO4)sc2c1 | 25.0 | -1.4 | 9.4 | -1.1 | -3.0 | · | · | · | · | ·
CCOC(=O)N1CCN(C(=O)COC(=O)CN(C)S(=O)(=O)c2ccc(NC(C)=O)cc2)CC1 | -5.6 | -1.9 | -7.5 | 6.6 | -3.9 | 5.6 | 0.2 | -2.0 | i | -1.0
CC1(C)CC2CC(C)(CN2C(=O)C23CCC(C)(C(=O)O2)C3(C)C)C1 (stereo not drawn) | -1.2 | -0.8 | 8.5 | -7.6 | 0.3 | -20.9 | -21.7 | 1.0 | · | ·
COc1ccc(NC(=O)CNC(=O)c2c(C)nn(C)c2Cl)cc1 | 0.8 | -0.9 | -2.8 | -4.7 | · | 12.5 | 10.4 | 1.6 | i | 0.3
Cc1noc(C)c1CSCC(=O)Nc1cc(S(=O)(=O)N2CCOCC2)ccc1OCC(F)(F)F | -9.5 | -2.4 | -2.6 | -5.3 | -6.0 | 0.2 | 1.8 | 2.9 | i | -0.8
COCCN(Cc1cc2ccc(C)cc2n2nnnc12)Cc1nnnn1C(C)(C)C | 3.8 | 0.2 | 9.1 | 0.7 | 0.6 | · | · | · | · | ·
Cc1ccccc1OCCC(=O)OCC(=O)NC(C)c1ccccc1 (stereo not drawn) | -3.2 | 1.8 | -11.3 | 2.4 | -4.1 | -11.5 | -7.6 | 0.8 | i | -2.7
COC(=O)CSc1ncnc2c1sc1nc3c(cc12)COC(C)(C)C3 | -5.9 | -1.6 | -3.4 | 26.5 | -3.2 | -5.2 | -4.5 | -0.9 | i | -1.7
Cc1ccccc1C(=O)Nc1cccc(-c2cn3ccccc3n2)c1 | · | 5.0 | -8.3 | 5.1 | 46.7 | -40.8 | -49.0 | -9.8 | · | 1.5
O=C1NN=C(c2ccc(Cl)cc2)CC1c1cccc(Br)c1 (stereo not drawn) | -9.9 | 2.6 | -7.8 | 5.8 | 0.6 | -22.0 | -35.6 | -9.9 | i | 9.8
COc1ccc(C(=O)NCc2ccccc2CN2CCCC2)cc1S(=O)(=O)Nc1ccc(C)cc1 | 15.0 | · | · | · | -4.5 | 2.7 | 0.8 | 0.4 | i | 5.1
CCn1c(SCc2nc3scc(-c4ccccc4)c3c(=O)[nH]2)nnc1-c1ccc(Cl)cc1 | 0.3 | 3.5 | 11.4 | -6.4 | -9.0 | 19.1 | 3.7 | 1.4 | i | 5.7
Cc1cc(C)n2c(SCC(=O)NCc3ccc4c(c3)OCO4)nnc2n1 | -6.0 | 10.2 | -0.6 | -7.0 | 0.0 | 13.4 | 9.2 | -2.8 | i | -2.8
COc1ccc(-c2csc(NC(=O)C3=COCCO3)n2)c(OC)c1 | -0.5 | -3.9 | 0.1 | 10.4 | 15.7 | -20.1 | -27.1 | -0.6 | i | 2.5
O=C(NCCCN1CCOCC1)c1onc(CSc2ccccn2)c1C(=O)NCCCN1CCOCC1 | · | -3.3 | -9.0 | -4.0 | 2.1 | · | · | · | · | ·
COc1cccc(/C=N/NC(=O)c2c(C)nc3ccc(Br)cn23)c1O | 81.6* | 6.1 | 69.3* | 108.8* | 43.8 | · | · | · | · | ·
Cc1onc(-c2ccccc2Cl)c1C(=O)NCCn1c(C)cc2ccccc21 | 3.5 | 3.9 | 36.8 | -20.9 | · | · | · | · | · | ·
COc1ccccc1[C@@H]1C(c2cccc(Cl)c2)=NN(c2ccccc2)[C@H]1C(=O)N1CCOC1=O | -3.2 | 26.7* | -9.3 | 18.0 | · | · | · | · | · | ·
O=C(CNc1ccc(Br)cc1)c1ccc(Br)s1 | -2.6 | -1.1 | -2.2 | -4.7 | · | -2.3 | 0.7 | 0.4 | i | 3.7
CCc1nc2ccccc2n1CC(=O)N(C(C)CC)C1CCS(=O)(=O)C1 (stereo not drawn) | 0.6 | -1.0 | 10.9 | · | -5.5 | · | · | · | · | ·
O=C1C=C(c2ccc3c(c2)oc2ccccc23)C[C@@H](c2ccc(Cl)cc2)C1 | 0.1 | · | · | · | -3.3 | 4.8 | -0.1 | -2.8 | i | -5.3
O=C1CC(c2ccc(F)cc2)CC2=C1C=Nc1ccccc1N2 (stereo not drawn) | -2.8 | -1.4 | 3.3 | 21.4 | · | 3.9 | 15.1 | -0.6 | i | 1.5
Cc1cccc(C)c1OCc1nc2ccccc2c(=O)n1/N=C/c1c[nH]c2ccccc12 | 9.9 | 1.3 | 69.3* | 1.0 | -12.9 | · | · | · | i | 7.0

Continued, starting with the last 2 of the part before.
SMILES | Beta cell apopt | RanGTP-Impb inh | T cruzi repl | Calb FLC | ALR H2O2 inh | Ecoli rRNA inh | Ecoli rRNA inh OD600 | Ecoli rRNA inh RFP | FGF22 binding | MLL AF4-AF9 inh
O=C1CC(c2ccc(F)cc2)CC2=C1C=Nc1ccccc1N2 (stereo not drawn) | -2.8 | -1.4 | 3.3 | 21.4 | · | 3.9 | 15.1 | -0.6 | i | 1.5
Cc1cccc(C)c1OCc1nc2ccccc2c(=O)n1/N=C/c1c[nH]c2ccccc12 | 9.9 | 1.3 | 69.3* | 1.0 | -12.9 | · | · | · | i | 7.0
CNc1ccccc1-n1ccc(-c2ccccc2)n1 | -2.3 | ? | 2.1 | 11.6 | 93.7* | · | · | · | · | ·
O=C(C1CCN(Cc2ccc(Cl)cc2)CC1)N1CCN(C(c2ccccc2)c2ccccc2)CC1 | 33.4 | 0.9 | 25.9 | 7.3 | -73.9 | · | · | · | · | ·
COc1cccc(CN2CCNC(=O)C2CC(=O)NCCn2ccc3ccccc32)c1OC (stereo not drawn) | -3.3 | -12.2 | 5.4 | 24.0 | -12.9 | 2.9 | 6.0 | 0.3 | i | 1.3
Nc1nc(SCC(=O)Nc2ccc([N+](=O)[O-])cc2)n[nH]1 | 0.0 | -3.0 | -11.5 | 0.0 | 97.2* | 4.2 | -7.1 | -0.1 | i | -3.1
c1ccc2c(N3CCCCC3)nc(N3CCCCC3)nc2c1 | 5.7 | 5.7 | -2.1 | -0.7 | -4.1 | · | · | · | · | ·
Cc1nn(Cc2ccccc2)c(Cl)c1C(=O)OCc1nnc(-c2ccc(Cl)cc2)o1 | -4.2 | -3.9 | 5.7 | 18.8 | -2.7 | · | · | · | · | ·
